Screening data from PubChem BioAssay.
FGF22 binding – binders of recombinant human FGF22 by thermal shift. Q9HCT0. SYPRO orange fluorescence; percent of sucrose octasulfate shift, DMSO zero. calls only at 9.99 µM. actives 1.5% (n = 340,000). AID 651658;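 active means melting point raised past a set limit in the mean and every replicate; inconclusive means no clear call; three in four hits are not shown here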
rRNA inh HTS – inhibitors of bacterial rRNA selective over humanized ribosomes; E. coli WT GFP vs humanized-ribosome RFP mutants, fluorescence, 24 h; stronger effect = lower value; DMSO median 0, no signal -100; GFP signal change (wild-type ribosome), % (concentration not given with the values); actives 1.6% (n = 350,000); AID 720706;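 active means significant combined selectivity score with lowered wild-type GFP, culture density cut under 30%, mutant RFP and density less affected; inactive means any of these conditions unmet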; further: one replicate is shown; some compounds called inactive have numbers as strong as hits
MLL AF4-AF9 inh – inhibitors of human MLL-AF4/AF9 interaction; actives 0.47% (n = 350,000); AID 651704; P42568; AlphaScreen, biotin-AF4 peptide binding to FLAG-AF9; inhibition, % at 10 µM;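 active means every replicate reaching a set inhibition limit, whatever the replicate mean, cut at about 25% in these data; inconclusive means mean inhibition reaches that limit but some replicates miss it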;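 further: 0% = plate neutral control median and 100% = total signal loss; the record names both 10 and 1 µM as test concentration; the first replicate is given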
Target sequence (P42568 whole entry, looked up): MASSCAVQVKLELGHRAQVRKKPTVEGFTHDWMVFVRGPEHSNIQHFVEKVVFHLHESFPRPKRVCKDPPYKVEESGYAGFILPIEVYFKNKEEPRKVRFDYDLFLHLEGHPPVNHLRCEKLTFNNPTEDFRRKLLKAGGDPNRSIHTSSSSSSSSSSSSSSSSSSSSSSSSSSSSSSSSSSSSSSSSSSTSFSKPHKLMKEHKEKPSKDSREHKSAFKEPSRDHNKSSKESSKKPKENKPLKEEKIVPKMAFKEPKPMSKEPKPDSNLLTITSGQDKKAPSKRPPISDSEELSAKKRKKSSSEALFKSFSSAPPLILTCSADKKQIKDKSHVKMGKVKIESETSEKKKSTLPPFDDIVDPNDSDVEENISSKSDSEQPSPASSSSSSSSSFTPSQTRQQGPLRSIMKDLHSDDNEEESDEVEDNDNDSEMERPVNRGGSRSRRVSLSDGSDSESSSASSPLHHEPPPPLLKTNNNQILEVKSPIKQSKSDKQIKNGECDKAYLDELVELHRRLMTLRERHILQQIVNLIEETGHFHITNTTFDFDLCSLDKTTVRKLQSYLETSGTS
Vif A3G – HIV-1 Vif–A3G interaction blockers – biochemical, TR-FRET, GST-Vif 1-94, biotin-A3G peptide, dose response retest, primary screen (AID 1117319) | TR-FRET GST-Vif / biotin-A3G peptide binding; higher % means a stronger effect; test concentration not given here; strong numbers were not always called active | one-dose inhibition, %; IC50 in µM for titrated hits | actives 0.57% (n = 260,000);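 active means above the screen mean plus three standard deviations and confirmed in dose response; inconclusive means results disagree or hit not tested in dose response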;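 further: Vif residues 1-94 fused to GST binding biotinylated APOBEC3G peptide 110-148; 0% = full assay without inhibitor and 100% = GST in place of GST-Vif; retest series ran down from 100 µM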
Ecoli growth – inhibitors of Escherichia coli growth; OD600, 23 h; stronger effect = lower value; OD600 absorbance (test concentration not listed); actives 0.21% (n = 330,000);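 active means OD600 absorbance below the run mean of sample wells minus 3.6 SD, in any replicate, cut at about 0.56 in these data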;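 further: stock transfer was 300 nL into about 60 µL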
ALR H2O2 inh – human ALR oxidase inhibition via reduced H2O2; P55789; purified ALR, DTT oxidation, H2O2 HRP-luminol luminescence; inhibition, % (concentration not given with the values); actives 3.8% (n = 290,000);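 active means mean and each replicate at 75% or more; inconclusive means only one of the two met; inactive means neither met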;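 further: stock transfer was 7.5 nL into about 7.5 µL; 0% = neutral wells and 100% = wells with inactivated enzyme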
HNF4A DNA FP – change in binding of human HNF4 alpha to DNA. P41235. activity change, % at 10 µM. actives 0.3% (n = 360,000). AID 1224865. HNF4a-FITC DNA binding, fluorescence polarization, 1 h; in the data active means activity change above about 30%, passing the limit was not always enough;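 further: controls were the assay level and a saturating level of protein; the project sought stronger binding though the title names inhibitors; some compounds called inactive have numbers as strong as hits; positive values seem to mean higher polarization but the record does not say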
Target sequence (P41235 whole entry, looked up): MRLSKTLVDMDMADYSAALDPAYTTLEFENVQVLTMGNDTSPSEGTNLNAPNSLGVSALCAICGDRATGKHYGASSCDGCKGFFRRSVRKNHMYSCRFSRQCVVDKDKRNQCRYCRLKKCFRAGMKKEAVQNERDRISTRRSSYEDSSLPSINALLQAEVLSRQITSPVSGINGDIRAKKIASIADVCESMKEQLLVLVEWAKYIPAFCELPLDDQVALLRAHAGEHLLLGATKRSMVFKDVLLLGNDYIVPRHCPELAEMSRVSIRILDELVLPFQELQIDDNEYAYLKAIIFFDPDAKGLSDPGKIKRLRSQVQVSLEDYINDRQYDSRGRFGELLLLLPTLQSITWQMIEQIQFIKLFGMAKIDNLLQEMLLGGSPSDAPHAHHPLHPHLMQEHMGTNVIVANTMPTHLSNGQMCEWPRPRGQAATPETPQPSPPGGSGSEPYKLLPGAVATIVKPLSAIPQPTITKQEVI
rRNA inh HTS OD600 – further read-out of rRNA inh HTS, marked with its call; OD600 change, %; measured here: OD600 growth;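 optical density of the mix in the first replicate; 0 = DMSO median and -100 = no signal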
rRNA inh HTS RFP – recorded beside rRNA inh HTS, whose call it bears; RFP signal change, %; measured here: RFP humanized mutant strains;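 first replicate; 0 = DMSO median and -100 = no signal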
The depositor's hits bear a star; i = inactive; ? = inconclusive; / = no result given; & = joins results of further samples.

SMILES | FGF22 binding | rRNA inh HTS | rRNA inh HTS OD600 | rRNA inh HTS RFP | MLL AF4-AF9 inh | Vif A3G | Ecoli growth | ALR H2O2 inh | HNF4A DNA FP
O=C(Nc1ccc(O)c(-c2nc3ccccc3o2)c1)C1(c2ccc(Cl)cc2)CCCC1 | / | / | / | / | / | / | 0.69 | -10 | -1.4
O=C(Nc1ccccc1O)c1cccc(S(=O)(=O)N2CCOCC2)c1 | i | 6 | 5 | -1.3 | -1.3 | ? | 0.68 | 62 | -2.6
CCC(=O)Nc1ccc(/C(C)=N\NC(=O)c2ccc(OC)cc2)cc1 | i | 7 | 5 | -3.4 | 2.0 | 5% | / | 0 | -1.8
COC(C(=O)Nc1ccnn1C1CCN(Cc2ccccn2)CC1)c1ccccc1 (centres undefined) | i | 14 | 10 | 0.8 | -0.8 | / | 0.7 | -9 | -3.8
C=CCNc1nc(-c2ccccn2)nnc1-c1ccccc1 | / | / | / | / | / | 24% | 0.71 | -1 | 0.8
CC(C)C#Cc1ccc2c(c1)O[C@H](CN(C)Cc1cccnc1)[C@@H](C)CN([C@@H](C)CO)S2(=O)=O | i | -42 | -64 | 26 | -5.7 | / | / | / | /
CC1(C(=O)Nc2ccccc2)CCN1C(=O)C1(c2ccc(Cl)cc2)CC1 (centres undefined) | i | -53 | -76 | -17 | -0.3 | / | / | / | 2.0
CCN(CC(=O)NC1CCS(=O)(=O)C1)C(=O)c1ccc(S(=O)(=O)N(CC)CC)cc1 (centres undefined) | i | -6 | -2 | -7.6 | -0.6 | -10% | 0.68 | -4 | 2.0
C=C[C@]1(C)C=C2C(=O)[C@@]3(O)OC(=O)[C@@]4(CCCC(C)(C)[C@H]34)[C@@]2(O)CC1 | i | -5 | -27 | 4.8 | -2.6 | / | / | / | 0.2
COc1ccc(C(=O)c2cn[nH]c2-c2cc(C)ccc2O)cc1 | i | -16* | 4.3* | 3.9* | -0.5 | 1% | 0.65 | 20 | -2.3

Exported as labelled records: entries from further up
> C=CCNc1nc(-c2ccccn2)nnc1-c1ccccc1
  FGF22 binding = /	rRNA inh HTS = /	rRNA inh HTS OD600 = /	rRNA inh HTS RFP = /	MLL AF4-AF9 inh = /	Vif A3G = 24%	Ecoli growth = 0.71	ALR H2O2 inh = -1	HNF4A DNA FP = 0.8
> CC(C)C#Cc1ccc2c(c1)O[C@H](CN(C)Cc1cccnc1)[C@@H](C)CN([C@@H](C)CO)S2(=O)=O
  FGF22 binding = i	rRNA inh HTS = -42	rRNA inh HTS OD600 = -64	rRNA inh HTS RFP = 26	MLL AF4-AF9 inh = -5.7	Vif A3G = /	Ecoli growth = /	ALR H2O2 inh = /	HNF4A DNA FP = /
> CC1(C(=O)Nc2ccccc2)CCN1C(=O)C1(c2ccc(Cl)cc2)CC1 (centres undefined)
  FGF22 binding = i	rRNA inh HTS = -53	rRNA inh HTS OD600 = -76	rRNA inh HTS RFP = -17	MLL AF4-AF9 inh = -0.3	Vif A3G = /	Ecoli growth = /	ALR H2O2 inh = /	HNF4A DNA FP = 2.0

(list continues)
SMILES | FGF22 binding | rRNA inh HTS | rRNA inh HTS OD600 | rRNA inh HTS RFP | MLL AF4-AF9 inh | Vif A3G | Ecoli growth | ALR H2O2 inh | HNF4A DNA FP
CC(C)c1ccc(-c2nnn(CC(=O)N3CCCCC3)n2)cc1 | i | 1 | -2 | -5.0 | 1.7 | -4% | 0.71 | -5 | -4.7
CCC1C(=O)Nc2nc(-c3ccccc3)c(-c3ccccc3)n2N=C1C (centres undefined) | / | / | / | / | / | 4% | 0.73 | 22 | -2.3
NCCc1nnc(SCc2ccc(F)cc2)o1 | / | / | / | / | / | ? | 0.68 | -4 | 3.8
CCOC(=O)c1[nH]c2ccc(Br)cc2c1NC(=O)CCN1CCN(C(=O)OCC)CC1 | / | / | / | / | / | -6% | 0.72 | 0 | 1.0
CCOc1ccc(CCNC(=O)Cc2ccc(S(=O)(=O)N3CCOCC3)s2)cc1OCC | / | 2 | 3 | 4.1 | 1.1 | -7% | 0.72 | -10 | 1.2
CC(C)C(=O)Nc1ccc2c(c1)C(=O)N(C)[C@@H]1CC[C@@H](CC(=O)NCc3ccccc3)O[C@H]1CO2 | i | 5 | 5 | -0.7 | -9.7 | / | / | / | /
CNC[C@H]1Oc2cc(C#Cc3ccccn3)ccc2S(=O)(=O)N([C@@H](C)CO)C[C@@H]1C | i | 6 | 6 | 2.4 | 0.1 | / | / | / | /
COC(=O)Nc1ccc(S(=O)(=O)N2CCCC(C(=O)N3CC(C)OC(C)C3)C2)cc1 (centres undefined) | i | -5 | -6 | 9.1 | -0.3 | -6% | 0.67 | -3 | 0.6
Cc1cc(C)c(S(=O)(=O)N2CCCCC2CCNC(=O)C(=O)NCc2cccnc2)c(C)c1 (centres undefined) | / | -10 | -20 | 0.9 | -0.8 | / | / | -53 | 0.3
CN(C)C(=O)c1ccc(-n2nc(C(F)(F)F)c3c2CCCC3)cc1 | / | / | / | / | / | -9% | 0.79 | -5 | 1.6
O=C(O)CCN1C(=O)c2ccc(Oc3ccc4c(c3)C(=O)N(CCC(=O)O)C4=O)cc2C1=O | / | / | / | / | / | 0% | 0.71 | -7 | 0.1
COC(=O)c1cccc(NC(=S)N2CCCCC2)c1 | i | 4 | 3 | -0.9 | -1.9 | 13% | 0.7 | -3 | 3.4
O=S(=O)(NCCSc1ccc(Cl)cc1)c1ccc(F)cc1 | / | / | / | / | / | -7% | 0.62 | -3 | -1.2
COc1ccc(NC(=O)N[C@@H]2C=C[C@@H](CC(=O)NCc3ccccn3)O[C@H]2CO)cc1 | i | 1 | 3 | -0.7 | -2.3 | / | / | / | /
COc1ccc(NC(=O)CN(C)C(=O)c2cc(-c3ccco3)nc3ccccc23)cc1 | i | 3 | 1 | 1.4 | 0.6 | 4.9µM* | 0.69 | 9 | -32
O=C(CNC(=O)c1cccc(-n2cccc2)c1)Nc1ccccc1Br | / | 10 | 5 | 10 | 5.3 | 5% | / | / | -10
CC(OC(=O)c1ccc(S(=O)(=O)NCc2ccco2)cc1)C(=O)Nc1ccccc1 (centres undefined) | i | 3 | -2 | 4.9 | 0.4 | 0% | / | -10 | 5.8
CC(C)NC(=O)c1cc(C2CCCCN2C(=O)c2ccccc2)on1 (centres undefined) | i | -2 | 7 | -0.2 | -2.9 | / | / | / | 3.1
Cc1ccc(NC(=O)c2nc[nH]c2C(=O)NCCCNC(=O)c2[nH]cnc2C(=O)Nc2ccc(C)cc2)cc1 | / | 23 | 16 | 0.3 | / | / | / | 2 | 7.8
CC(C)NC(=O)N(C)C[C@@H]1Oc2ccc(NC(=O)C3CCCCC3)cc2CC(=O)N([C@@H](C)CO)C[C@H]1C | i | 1 | -1 | -1.6 | -2.6 | / | / | / | /
CSc1ccc(/C=N/NC(=O)COc2ccc(Br)cc2Cl)cc1 | i | 4 | -7 | -0.5 | 1.9 | -4% | / | -1 | 0.6
COc1ccc(-n2cc(CN[C@H]3CCCCNC3=O)c(-c3cccc(F)c3)n2)cc1 | i | 2 | -10 | 19 | 4.1 | ? | 0.69 | / | 11
CC(NC(=O)Cc1ccccc1)C1COc2ccccc2O1 (centres undefined) | i | -5 | 2 | -3.7 | -0.4 | 0% | 0.71 | 1 | -0.3
COc1ccc(NC(=O)C(C)Sc2nnc(C3CC3)n2C2CC2)cc1 (centres undefined) | i | 4 | 6 | -0.1 | 1.7 | -9% | 0.68 | 1 | -1.3
CC(C)C1(C2CCCC2)NC(=O)NC1=O (centres undefined) | i | 8 | 12 | -8.7 | -2.6 | -4% | 0.68 | / | -0.7
CC1(C(=O)NCc2ccc(F)c(F)c2)Cc2c(-c3cccc(C(N)=O)c3)ccnc2O1 (centres undefined) | i | -6 | -10 | -2.3 | -0.1 | / | / | / | -2.5
CCCN(C(=O)CSCc1ccc(C)cc1)c1c(N)n(Cc2ccccc2)c(=O)[nH]c1=O | i | 0 | 2 | -0.6 | 1.2 | 5% | / | / | 5.0
O=c1c(O[C@H]2O[C@@H](CO)[C@H](O)[C@@H](O)[C@@H]2O)c(-c2ccc(O)cc2)oc2cc(O)cc(O)c12 | i | -2 | 10 | -6.4 | -3.8 | / | / | 87* | -0.6
O=C(CN1C(=O)c2ccccc2C1=O)NCc1ccc(N2CCOCC2)cc1 | i | 11 | 13 | 2.4 | 2.6 | / | 0.67 | -5 | -0.4
CCN(CCNC(=O)C1CCCN(Cc2nc(-c3ccc(OC)cc3)oc2C)C1)c1ccccc1 (centres undefined) | / | / | / | / | / | 0%&10% | 0.7 | 96* | -0.4
COc1ccc(NC(=O)N(C)C[C@H]2Oc3c(NC(=O)NC4CCCCC4)cccc3C(=O)N([C@H](C)CO)C[C@H]2C)cc1 | i | 2 | 7 | 2.1 | 3.1 | / | / | / | /
COC(=O)c1cc(=O)c2c(C)nc(C(Cl)(Cl)Cl)nc2[nH]1 | i | -7 | -2 | 3.8 | -0.3 | -3% | 0.67 | -4 | -2.9
CC1CCC(=NNC(=O)c2ccccc2-n2cccc2)CC1 (centres undefined) | i | -4 | 1 | -0.2 | -9.8 | 1% | 0.68 | 12 | -6.8
CC(C)C#Cc1cnc2c(c1)C(=O)N([C@H](C)CO)C[C@H](C)[C@H](CN(C)Cc1ccccc1F)O2 | i | -5 | 2 | 1.1 | -1.3 | / | / | / | /
COc1ccc(S(=O)(=O)Nc2ccc3c(c2)[C@@H]2C[C@@H](CC(=O)O)O[C@H](CO)[C@@H]2O3)cc1 | i | 6 | 13 | -0.4 | -1.0 | / | / | / | /
Cc1ccc(S(=O)(=O)N2CCOC23CCN(S(=O)(=O)c2cccs2)CC3)cc1 | i | 11 | 14 | -1.5 | 2.8 | -6% | 0.68 | 0 | 1.5
CCOc1ccc(Nc2nc(Cc3nnc(SCC(=O)O)o3)cs2)cc1 | / | / | / | / | / | 14% | 0.65 | 87* | -6.0
COc1ccc(C)cc1NC(=O)C1CCN(S(=O)(=O)c2cccc3cccnc23)CC1 | i | -13 | -15 | 0.1 | 7.3 | ? | 0.77 | / | 4.1
COc1cccc(C2=NOC(C(=O)N3CCN(Cc4ccccc4)CC3)C2)c1OC (centres undefined) | / | / | / | / | / | 29% | 0.62 | -5 | 1.5
O=C(c1ccc(F)cc1)N1CC(=O)N2[C@H](CO)[C@H](c3ccc(-c4cccnc4)cc3)[C@H]2C1 | i | -2 | 2 | 2.0 | -1.5 | / | / | / | /
COC(=O)[C@@]1(Cc2ccc(F)cc2)[C@H]2c3cc(C(=O)N4CCCC4)n(CCc4c[nH]c5ccc(OC)cc45)c3C[C@H]2CN1C(=O)c1ccccc1 | i | 6 | 12 | 4.0 | / | 9% | / | 4 | /
C[C@@H]1CN([C@@H](C)CO)C(=O)Cc2cc(NS(C)(=O)=O)ccc2O[C@H]1CN(C)Cc1ccc(-c2ccccc2)cc1 | i | -47 | -74 | -5.9 | 14 | / | / | / | /
CCc1ccc(NC2Nc3cc(C)nn3S2)cc1 (centres undefined) | / | / | / | / | / | -11% | 0.68 | 97* | 1.3
Cc1cccc(NC(=S)NCCC(c2ccccc2)c2ccccc2)c1 | i | -21 | -14 | 26 | -6.3 | -9% | 0.67 | -7 | -1.2
Nc1c(Cl)c(Cl)nc(C(=O)OCC(=O)NC2CCCCC2)c1Cl | i | 2 | 1 | 9.3 | -11 | 5% | 0.72 | -2 | -1.2
CC(=O)c1ccc(-n2ccnc2)cc1 | i | 4 | 11 | -4.8 | -1.2 | 1% | 0.63 | -8 | 3.9
CCC(C)C(NC(=O)C1CCC(=O)N1C(=O)OCc1ccccc1)C(=O)NC(Cc1ccccc1)C(N)=O (centres undefined) | i | 10 | 17 | 3.7 | -2.9 | / | 0.69 | -14 | -3.1
CN1CCN(c2ccc(S(=O)(=O)N3CCCCC3)cc2NC(=O)CSC(C)(C)C)CC1 | i | -1 | 5 | 2.7 | 5.8 | / | / | / | -0.5

Only part of the results is shown; the hit share may differ from the screen's.
